ClpP mod – qHTS Assay for Activators of ClpP; purified B. subtilis ClpP, FRET peptide cleavage, 20 min; 1.9% of 340,000 active; Potency, µM (titrated, usually from 57.5 µM), without a hit: top-dose activity change, negative = active; active = well fitted falling curve with a large enough effect; inconclusive = small, poorly fitted or top-dose-only effect; inactive = no such curve, though single readings can be large or run the other way; note: potency is the fitted concentration of half-maximal effect; the source files actives as falling curves though it sought activators and does not explain the sign; nearly all actives have a fitted effect of over 65% in size; many hits overshoot -100%
Target sequence (P80244 whole entry, looked up): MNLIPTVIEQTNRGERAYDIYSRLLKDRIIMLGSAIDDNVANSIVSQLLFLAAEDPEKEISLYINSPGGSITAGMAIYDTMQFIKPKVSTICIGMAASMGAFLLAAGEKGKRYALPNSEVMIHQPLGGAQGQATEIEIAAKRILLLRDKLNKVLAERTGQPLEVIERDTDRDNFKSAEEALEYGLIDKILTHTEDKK
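FRET quenching reversal measured ClpP activation: 10 microg/mL B. subtilis ClpP at pH 8 with the FRET-FV decapeptide, read at 430 nm after 320 nm excitation. The 20-min minus 0-min signal was scaled between DMSO/no-enzyme wells and ADEP (5.8 microM final).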
gsp antag – qHTS for Antagonists of gsp, the Etiologic Mutation Responsible for Fibrous Dysplasia/McCune-Albright Syndrome: qHTS; AID 624288, 2012; 0.4% of 340,000 active; Potency, µM (highest dose often 76.9 µM), for the others: at the top dose activity change, negative = inhibition, most hits filed as inhibitors; gsp-mutant cells, cAMP HTRF, 30 min; control for the full effect not named in the record; active = falling curve of any shape with a large fitted effect; inconclusive = falling curve, mostly with a smaller effect; inactive = flat or rising curve; cell line not stated here;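 note: intracellular cAMP measured with PDE inhibitor Ro 20-1724 present during compound exposure; potency is the fitted concentration of half-maximal effect; % is set by controls: 0 for no effect and ±100 for the full control effect; nearly all actives have a fitted effect of over 65% in size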
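HTRF cAMP measurement after 30 min RT detection following 30 min, 37C compound treatment alongside […] (added as 300 uM solution) in G418-selected cells seeded at 2000/well and grown 16–24 h.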
gsp agonist – qHTS for Agonist of gsp, the Etiologic Mutation Responsible for Fibrous Dysplasia/McCune-Albright Syndrome: qHTS | gsp mutant cells, cAMP HTRF, 30 min; control for the full effect not named in the record | Potency, µM (doses to about 76.9 µM), inactives show top-dose activation (cAMP increase), usual class: activators | 0.13% of 340,000 active; active = well fitted activation curve with a large enough effect; inconclusive = small, poorly fitted or top-dose-only effect, or another doubt; inactive = no such curve, though single readings can be large or run the other way; cell line not stated here;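 note: phosphodiesterase inhibitor Ro 20-1724 added with compounds to block cAMP breakdown; potency is the fitted concentration of half-maximal effect; nearly all actives have a fitted effect of over 60% in size; about a fifth of the inactives were tested at one dose only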
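Cells in DMEM/10% FBS with G418 were pretreated with compounds in DMSO plus […] (300 uM stock) for 30 min at 37C. cAMP was measured by HTRF (cAMP-d2 plus anti-cAMP antibody-K) after 30 min at room temperature.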
Menin-MLL FL inh – qHTS Assay for Inhibitors Targeting the Menin-MLL Interaction in MLL Related Leukemias: Competition With Fluorescein Labeled MLL-derived Peptide; Fluorescence polarization, fluorescein-MLL peptide displacement from menin; FP activity change, % at 61.4 µM; 290,000 tested, under 10 active; AID 1766, 2009; inconclusive = falling polarisation curve, or a change in total fluorescence; inactive = total fluorescence flat and polarisation flat or rising; no compound was filed as active; the % refers to the polarisation; negative = inhibition;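 note: % of control where 0% means no effect; inhibitors lower the polarisation; unlabelled MLL peptide was the positive control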
PINK1 expr mod – A Quantitative High throughput Screen to Identify Chemical Modulators of PINK1 Expression. PINK1 immunofluorescence, high-content cytometry, 24 h. Potency, µM (doses to about 76.6 µM), inactives show at the top dose activation (PINK1 increase), usual class: activators. 0.2% of 410,000 active; active = well fitted activation curve with a large enough effect; inconclusive = small, poorly fitted or top-dose-only effect; inactive = flat fitted curve, though single readings scatter; cell line not stated here;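 note: potency is the fitted concentration of half-maximal effect; % of control where 0% means no effect; nearly all actives have a fitted effect of over 65% in size; a mitochondrial uncoupler was the plate control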
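PINK1 protein level read as immunofluorescence by microplate cytometer in a fixed, stained stable cell line after 24 h exposure to five compound concentrations, with CCCP as control.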
D2 agonist – Beta-Arrestin HTS for Positive Allosteric Modulators of the Human D2 Dopamine Receptor: Agonists; D(2) dopamine receptor (Homo sapiens), P14416; DiscoveRx PathHunter D2 beta-arrestin, luminescence, 90 min; 100% = 57 uM dopamine signal; activation, % (test concentration not listed); 0.084% of 360,000 active; AID 624465, 2012; in the data active = activation above about 40%; inconclusive = about 15% to 40%; inactive = below about 15%; note: compound concentration not given in the record; the text of the record calls up to 30% inactive
Target sequence (P14416 whole entry, looked up): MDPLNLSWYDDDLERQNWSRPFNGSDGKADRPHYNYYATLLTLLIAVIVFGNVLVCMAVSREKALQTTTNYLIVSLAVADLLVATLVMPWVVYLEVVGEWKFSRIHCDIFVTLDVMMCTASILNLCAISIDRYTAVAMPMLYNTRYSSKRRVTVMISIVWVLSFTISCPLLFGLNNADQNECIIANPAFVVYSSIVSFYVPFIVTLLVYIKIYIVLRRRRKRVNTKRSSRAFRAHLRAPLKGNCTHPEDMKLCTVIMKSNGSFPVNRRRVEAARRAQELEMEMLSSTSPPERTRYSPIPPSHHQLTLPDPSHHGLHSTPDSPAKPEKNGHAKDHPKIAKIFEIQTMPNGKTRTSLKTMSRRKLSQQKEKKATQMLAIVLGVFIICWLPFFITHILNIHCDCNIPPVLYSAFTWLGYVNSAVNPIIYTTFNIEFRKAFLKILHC
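Agonist mode: compounds alone added to overnight-plated D2 PathHunter cells for 90 min at 37 C, with 57 uM final dopamine (EC100) defining full response. Beta-arrestin recruitment detected by chemiluminescent reagent, read after 1 h at ambient temperature.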
Sfp PPTase inh – qHTS Assay for Inhibitors of Bacillus subtilis Sfp phosphopantetheinyl transferase (PPTase); 4'-phosphopantetheinyl transferase ffp (Bacillus subtilis), Q9F4F7; Biochemical Sfp PPTase activity, qHTS; Potency, µM, without a hit: max response, negative = inhibition, hits mostly inhibitors; 3.5% of 310,000 active; AID 1490, 2009; active = well fitted inhibition curve with a large enough effect; inconclusive = small, poorly fitted or top-dose-only effect, or another doubt; inactive = no such curve, though single readings can be large or run the other way;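 note: the enzyme is Sfp with the accession as filed and its product quenches rhodamine fluorescence; potency is the fitted concentration of half-maximal effect; 0% = enzyme reaction without inhibitor and -100% = no enzyme wells; top concentration of the series not given in the record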
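Reaction rates are the 30-min fluorescence difference (ex 525, em 598 nm) in wells containing 15 nM Sfp, 5 uM rhodamine-CoA and 12.5 uM BHQ-2-YbbR at pH 7.6 with 10 mM MgCl2.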
* = called active by the depositor; ? = inconclusive; / = no result given; & = joins results of further samples; [ ] = dose if it differs, or a comment.

SMILES | ClpP mod | gsp antag | gsp agonist | Menin-MLL FL inh | PINK1 expr mod | D2 agonist | Sfp PPTase inh
Cc1ccc(Cl)cc1NC(=O)C(=O)N/N=C/c1ccc2c(c1)OCO2 | -9.7% | 1.4% | -14.0% | / | 7.5% | -3.3 | -4.6%
CCOC(=O)C1=C(C)N=c2s/c(=C/c3cccc([N+](=O)[O-])c3O)c(=O)n2C1c1cc(OC)c(OC)c(OC)c1 (configuration not stated) | / | ? | 11.2% | ? | 6.3% | -3.6 | 56.2µM*
O=C(NNS(=O)(=O)c1ccc(C(=O)NC2CCCC2)cc1)c1ccncc1 | / | 6.0% | 8.2%[15.4 µM] | -1.9 | 3.4% | -5.5 | -13.5%
O=c1[nH]n2c(-c3ccccc3)nc(O)c2c2ccccc12 | / | 5.7% | -5.3%[15.4 µM] | -1.8 | 0.2% | -1.5 | 6.7%
CC1CC(C)CN(C(=O)COC(=O)C2CCN(S(=O)(=O)c3c(Cl)cccc3Cl)CC2)C1 (configuration not stated) | -1.9% | -5.0% | -7.6% | / | 5.6% | -2.8 | /
Cc1cccc(OCCCN2CCOCC2)c1C | 0.0% | 13.3% | -43.4%[inhibitor] | -4.3 | 0.3% | -0.5 | -9.9%
CN1C(=O)CS/C1=N\NC(=O)COc1cccc2cccnc12 | / | -2.8% | 25.3%[15.4 µM] | -6.2 | -1.1% | 1.3 | 0.6%
CCOC(=O)c1ccccc1-n1nnnc1C | -0.7% | 3.8% | 4.8%[15.4 µM] | 1.9 | 1.0% | 1.4 | 11.7%
Cc1ccc(N(CC(=O)Nc2cc(Cl)ccc2Oc2ccccc2)S(C)(=O)=O)c(C)c1 | -5.3% | 3.2%[15.4 µM] | 2.9% | 0.8 | 1.6% | -2.7 | 18.6%
Cc1ccc(NC(=O)COC(=O)C2CC2C)c(S(=O)(=O)N2CCCCC2)c1 (configuration not stated) | 0.0% | -6.6% | -24.3% | -0.7 | -1.8% | -4.7 | 13.2%
COc1ccc2nc(NC(=O)c3cccc(OCc4c(C)noc4C)c3)sc2c1 | 0.6% | -2.9% | -2.2%[15.4 µM] | 14.2 | 0.3% | 5.3 | ?
CCOc1ccc(OCCOCCN2CCOCC2)cc1 | -0.6% | -1.4% | -23.1% | -1.7 | -0.4% | -4.9 | -15.7%
O=c1[nH]c(C2CCCN(S(=O)(=O)c3ccccc3Cl)C2)nc2c1nnn2Cc1ccc2c(c1)OCCO2 (configuration not stated) | -3.9% | 11.9% | -16.5% | / | 0.6% | -4.2 | -14.7%
O=c1cc(CN2CCN(c3ccc(F)cc3)CC2)c2cc3c(cc2o1)CCCC3 | 0.1% | -5.8% | -43.4%[inhibitor] | 2.5 | ? | -2.7 | 9.5%
Cc1cc(C)c(S(=O)(=O)Nc2ccc(N3CCOCC3)cc2)c(C)c1 | / | 0.4% | -9.5%[15.4 µM] | -1.1 | 0.7% | 4.5 | 5.2%
O=C(CC1C(=O)NCCN1Cc1ccccc1C(F)(F)F)NC1CCCCC1 (configuration not stated) | -8.8% | 7.8% | 1.6% | -0.8 | 0.6% | -6.1 | -7.2%
COc1cccc2c(N/N=C/c3ccc(O)c(O)c3)cc(C)nc12 | / | -1.7% | 4.3% | -4.4 | 0.4% | 10.8 | -25.6%
COc1ccc(C(=O)CSc2nnc(-c3ccco3)o2)cc1 | / | -3.0% | 15.8% | 1.6 | 5.1% | 0.3 | 26.5%
O=C(O)c1nn(-c2ccc(F)cc2)ccc1=O | -0.3% | -15.5% | 20.7%[15.4 µM] | 1.6 | 1.3% | -3.7 | -3.3%
COC(CNC(=O)c1ccc2c(c1)ncn2-c1cc(C)cc(C)c1)OC | / | -3.8% | -14.5% | 4.1 | 12.6% | -4.2 | 8.9%
CCOc1ccc(C(=O)CSCC(=O)O)cc1 | 3.1% | 2.2% | 0.4% | 0.5 | -0.2% | -2.3 | -21.9%
COC(=O)c1ccc(NC(=S)Nc2cccc(C)n2)cc1 | / | -0.9% | 28.1% | -11.9 | 2.2% | -0.2 | -8.5%
O=C(CCN1C(=O)/C(=C/c2cccc(Br)c2)SC1=S)NNC(=O)c1cccnc1 | -2.5% | ? | 9.0% | -0.1 | -6.9%[38.3 µM] | 1.3 | 1.4%
Nc1nonc1-n1nnc(C(=O)N/N=C/c2ccccc2O)c1CN1CCCC1 | 2.2% | -9.0% | ? | / | 3.2% | -3.2 | /
O=C1NCCN1c1ncc([N+](=O)[O-])s1 | -4.1% | 4.6% | / | 3.8[24.8 µM] | 0.6% | 4.2 | 12.8%
CCOc1ccccc1CN1CCN(Cc2cccc3c2OCO3)CC1CCO (configuration not stated) | -0.2% | 8.7% | 2.8% | -1.4 | 1.3% | -6.3 | -5.5%
Cc1ccc(CN(Cc2ccco2)C(=S)NCC(=O)NCc2cccnc2)cc1 | / | -11.0% | -0.3%[15.4 µM] | 8.2 | 0.8% | 1.1 | 22.4µM*
C=C(C)C1CC=C(CN2CCC(O)CC2)CC1 (configuration not stated) | -10.1% | 8.0% | -37.7%[inhibitor] | 4.3 | 2.3%[38.3 µM] | -0.8 | 11.5%
Nc1nc(NCc2ccco2)nc(N2CCOCC2)c1[N+](=O)[O-] | -23.1% | 13.7% | 4.6%[15.4 µM] | 3.7 | -1.7% | 1.7 | -2.0%
COCCNC(=O)/C(C#N)=C/c1ccc(O)cc1 | -1.1% | 2.9% | 7.2% | 3.6 | 0.6% | -4.0 | 7.0%
CC(=O)c1cc2c(cc1NC(=O)CCn1cnnn1)OCO2 | / | -0.4% | -44.6%[inhibitor] | -2.3 | -1.8% | -1.8 | 31.7%
CC(=O)Nc1ccc(/C(C)=N/NC(=O)c2ccccc2Cl)cc1 | 1.2% | -1.1% | -6.3% | 5.4 | -1.1% | 6.3 | 5.1%
CC1(C(=O)NCc2ccccc2)CCC(=O)N1CCOc1ccccc1 (configuration not stated) | -0.9% | / | / | / | -0.6% | -5.6 | /
COc1ccc(NC(=O)CNC(=O)Cn2ccc3ccccc3c2=O)c(OC)c1 | -7.1% | 6.3% | 0.1% | -0.3 | 3.6%&3.8% | 2.8 | -3.5%
O=C(CCC1CCCC1)NCc1cccs1 | -0.2% | 16.9% | -29.1% | 3.1 | 0.3% | -1.3 | 11.4%
O=C1NC(=O)N(c2ccccc2)C1=O | / | 3.0% | 8.2% | -8.7 | -0.9% | -5.8 | 11.5%
COc1ccc(C2CC3(CC(C)(C)NC(=S)N3)Oc3cc(O)cc(C)c32)cc1OC (configuration not stated) | / | 11.5% | ? | -0.6 | 1.4% | -3.4 | 12.1%
O=C(NCCc1c[nH]c2ccccc12)C(=O)NCC1OCCN1S(=O)(=O)c1ccccc1 (configuration not stated) | / | 1.8% | -8.4%[15.4 µM] | -1.3 | -1.7% | -2.7 | 11.7%
CCCCSc1nc2c(cnn2-c2ccc(C)c(C)c2)c(=O)[nH]1 | -6.6% | 10.1% | ? | -0.2 | 2.8% | -4.8 | -6.0%
CN(C)C(=O)N1CCC(C(=O)NC2CCCCCCC2)CC1 | 1.5% | -0.9% | -15.8% | -1.7 | 0.8%[38.3 µM] | 2.0 | 16.9%
O=C(Nc1ccn(Cc2ccccc2)n1)c1n[nH]c([N+](=O)[O-])c1Cl | 22.4µM* | ? | 4.2% | 2.3 | 0.5% | -0.7 | -1.2%
O=C(c1ccc2nc(Cc3ccccc3F)oc2c1)N1CC[C@H](O)C1 | -1.2% | 15.3% | 43.5% | 2.5 | 1.2% | -7.2 | 12.9%
COc1ccc(C2C(C(C)=O)=C(O)C(=O)N2CCCn2ccnc2)cc1OC (configuration not stated) | 1.1% | 6.7% | 1.0% | -1.6 | -3.9% | -2.2 | 4.2%
O=C(CCNC(=O)C1CCN(S(=O)(=O)c2ccc(F)cc2)CC1)NCc1ccccc1 | 0.4% | 7.4% | -0.4% | / | 2.0% | -1.6 | 11.3%
O=C(O)CSc1nnc(CNc2ccc(Cl)cc2)n1Cc1ccccc1 | -0.4% | -30.1% | -15.4% | -0.5 | 0.4% | -0.6 | 22.9%
CS(=O)(=O)N1CCC[C@@]2(CCN(C(=O)Nc3cccc(C#N)c3)C2)C1 | / | / | / | 6.9 | -0.3% | / | 22.3%
CCOc1ccc2oc(C(=O)N(CCOC)c3c(N)n(CC(C)C)c(=O)[nH]c3=O)c(C)c2c1 | 0.3% | 4.2% | 22.6% | / | 1.7% | -3.4 | /
CCC(=O)Nc1ccc(N2CCN(C(=O)c3ccco3)CC2)c(Cl)c1 | -4.7% | -12.5% | -6.7%[15.4 µM] | 4.7 | -0.1% | -3.3 | -4.7%
COc1ccc(-c2c(N)n[nH]c2C)cc1OC | / | -11.1% | -1.5%[15.4 µM] | 2.5 | 1.5% | -1.3 | 14.8%
CS(=O)(=O)N(CC(=O)N1CCN(Cc2ccc3c(c2)OCO3)CC1)Cc1ccc(Cl)cc1 | -1.0% | -9.9% | 2.1% | 3.2 | -2.3%[38.3 µM] | -2.4 | -2.9%
Cc1cc(C)n2nc(SCc3nnc(SCc4ccccc4Cl)s3)nc2n1 | 0.1% | 6.7% | 4.1% | 1.8 | -1.0%[38.3 µM] | -2.6 | 31.2%[activator]
Cc1ccccc1OCC(=O)Nc1ccc(S(=O)(=O)Nc2ccccn2)cc1 | 15.7% | -0.8% | -0.4% | 10.8 | 0.5% | 3.1 | -12.7%
O=C(/C=C/c1cn(-c2ccccc2)nc1-c1ccc2c(c1)OCCO2)NCCO | / | 0.7% | -9.9%[15.4 µM] | -0.7 | -0.4% | -5.0 | -1.9%
Cc1csc(NC(=O)c2cc3c(s2)CCC3)n1 | -5.5% | 12.8% | ? | 0.6 | -0.7% | -5.3 | -4.3%
Cc1[nH]c(=O)nc(SCc2cccc(Cl)c2)c1C#N | / | -16.8% | 7.8%[15.4 µM] | ? | 1.5% | -3.1 | 3.9%
COc1ccc(CC(=O)N/N=C\c2cc(Br)c(O)c(Br)c2)cc1 | -13.5% | -19.3% | 17.1% | 2.7 | 1.1% | -4.5 | -1.8%

Bioassay records (PubChem BioAssay)
